gsp agonist = activates gsp, the McCune-Albright syndrome mutation; Potency, µM (doses to about 76.9 µM), for the others: top-dose activation (cAMP increase), actives largely listed as activators; 0.13% of 340,000 active; AID 624287; gsp mutant cells, cAMP HTRF, 30 min; control for the full effect not named in the record; active = well fitted activation curve with a large enough effect; inconclusive = small, poorly fitted or top-dose-only effect, or another doubt; inactive = no such curve, though single readings can be large or run the other way; cell line not stated here;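 note: phosphodiesterase inhibitor Ro 20-1724 added with compounds to block cAMP breakdown; potency is the fitted concentration of half-maximal effect; nearly all actives have a fitted effect of over 60% in size; about a fifth of the inactives were tested at one dose only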
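Cells stably selected in G418 were plated at 2000/well, grown 16-24 hr, then given compounds in DMSO with the PDE inhibitor […] (300 uM solution added) for 30 min at 37C; cAMP was read by HTRF.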
TRPV1 PAM = potentiators of human vanilloid receptor 1 (TRPV1) | Q8NER1 | TRPV1-expressing cells, Fluo-8 calcium influx, capsaicin EC20 potentiation; host cell line not named in the record; control for the full effect not named in the record | potentiation, % at 8.33 µM | 0.02% of 320,000 active; active means potentiation above 80%; inconclusive means 30% to 80%; inactive means below 30%; note: 0% is about no effect
Target sequence (Q8NER1 whole entry, looked up): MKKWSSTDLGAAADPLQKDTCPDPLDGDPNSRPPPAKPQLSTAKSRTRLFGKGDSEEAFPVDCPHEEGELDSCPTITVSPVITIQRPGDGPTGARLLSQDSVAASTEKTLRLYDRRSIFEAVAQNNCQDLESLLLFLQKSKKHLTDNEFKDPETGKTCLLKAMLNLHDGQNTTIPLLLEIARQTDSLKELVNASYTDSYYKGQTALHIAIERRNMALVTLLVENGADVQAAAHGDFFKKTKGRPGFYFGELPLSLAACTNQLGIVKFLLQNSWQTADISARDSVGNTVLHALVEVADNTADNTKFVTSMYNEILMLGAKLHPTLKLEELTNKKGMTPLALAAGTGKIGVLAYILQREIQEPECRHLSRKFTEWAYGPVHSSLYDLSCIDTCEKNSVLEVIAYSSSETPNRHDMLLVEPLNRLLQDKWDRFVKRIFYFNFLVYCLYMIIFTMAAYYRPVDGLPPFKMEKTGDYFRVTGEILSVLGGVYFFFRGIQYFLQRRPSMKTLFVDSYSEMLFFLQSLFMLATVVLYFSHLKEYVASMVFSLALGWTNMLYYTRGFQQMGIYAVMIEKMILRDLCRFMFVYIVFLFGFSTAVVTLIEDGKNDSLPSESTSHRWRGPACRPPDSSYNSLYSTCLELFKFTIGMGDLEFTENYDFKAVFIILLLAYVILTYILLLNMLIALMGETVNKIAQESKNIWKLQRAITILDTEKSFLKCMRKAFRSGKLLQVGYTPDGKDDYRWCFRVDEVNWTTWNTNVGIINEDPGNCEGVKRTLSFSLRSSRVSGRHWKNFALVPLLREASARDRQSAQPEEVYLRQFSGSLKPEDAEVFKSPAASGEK
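TRPV1-expressing cells were cultured overnight at 35.5C and loaded with Fluo-8 calcium dye for 40 to 90 min at room temperature. After a 10 s baseline, compound was added and calcium influx was read kinetically for 3 min (ex 480/em 520 nm).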
gsp antagonist = antagonizes gsp, the McCune-Albright syndrome mutation; gsp-mutant cells, cAMP HTRF, 30 min; control for the full effect not named in the record; Potency, µM (top dose mostly 76.9 µM), without a hit: at the top dose activity change, negative = inhibition, hits mostly inhibitors; 0.4% of 340,000 active; active = falling curve of any shape with a large fitted effect; inconclusive = falling curve, mostly with a smaller effect; inactive = flat or rising curve; cell line not stated here;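 note: intracellular cAMP measured with PDE inhibitor Ro 20-1724 present during compound exposure; potency is the fitted concentration of half-maximal effect; % is set by controls: 0 for no effect and ±100 for the full control effect; nearly all actives have a fitted effect of over 65% in size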
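Cells in G418 medium, seeded 16-24 h, 37C; buffer exchange to DPBS + 1 mM CaCl2, 0.5 mM MgCl2, 0.05% BSA; cpds in DMSO + […] (300 uM stock), 30 min 37C; HTRF cAMP detection.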
Menin-MLL FL inh = menin-MLL binding inhibition, fluorescein peptide | FP activity change, % at 61.4 µM | AID 1766 | Fluorescence polarization, fluorescein-MLL peptide displacement from menin | 290,000 tested, under 10 active; inconclusive = falling polarisation curve, or a change in total fluorescence; inactive = total fluorescence flat and polarisation flat or rising; no compound was filed as active; the % refers to the polarisation; negative = inhibition;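 note: % of control where 0% means no effect; inhibitors lower the polarisation; unlabelled MLL peptide was the positive control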
D2 PAM = human D2 receptor positive allosteric modulation | potentiation, % (no concentration beside the values) | DiscoveRx D2 beta-arrestin cells, luminescence, 90 min; 100% = 57 uM dopamine signal | 0.23% of 360,000 active; active = potentiation of 50% or more; inconclusive = 30% to 50%; inactive = 30% or less;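 note: compound concentration not given in the record; tested on top of an EC20 dose of dopamine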
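PathHunter beta-arrestin assay in DiscoveRx D2 cells. Compounds were added with an EC20 of dopamine (50 nM final) for 90 min at 37 deg C. Luminescence was read 1 h after detection reagent, with 57 uM dopamine as the EC100 control.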
ClpP mod = qHTS Assay for Activators of ClpP | ATP-dependent Clp protease proteolytic subunit (Bacillus subtilis (strain 168)), P80244 | purified B. subtilis ClpP, FRET peptide cleavage, 20 min | Potency, µM (highest dose often 57.5 µM), for the others: at the top dose activity change, negative = active | 1.9% of 340,000 active | AID 651965, 2013; active = well fitted falling curve with a large enough effect; inconclusive = small, poorly fitted or top-dose-only effect; inactive = no such curve, though single readings can be large or run the other way; note: potency is the fitted concentration of half-maximal effect; the source files actives as falling curves though it sought activators and does not explain the sign; nearly all actives have a fitted effect of over 65% in size; many hits overshoot -100%
Target sequence (P80244 whole entry, looked up): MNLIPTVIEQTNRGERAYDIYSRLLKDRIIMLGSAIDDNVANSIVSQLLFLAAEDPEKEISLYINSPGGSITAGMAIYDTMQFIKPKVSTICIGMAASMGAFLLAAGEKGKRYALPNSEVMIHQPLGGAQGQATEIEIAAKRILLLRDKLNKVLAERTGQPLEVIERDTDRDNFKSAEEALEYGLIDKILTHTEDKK
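ClpP 10 microg/mL final, pH 8 Tris/KCl buffer with BSA, glycerol, Tween-20; compound pinned in; FRET-FV substrate; RT 20 min; Ex320/Em430; ΔFRET vs ADEP 5.8 microM, DMSO, no enzyme.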
Sfp inh = blocks B. subtilis Sfp PPTase activity; AID 1490; Biochemical Sfp PPTase activity, qHTS; Potency, µM, inactives show max response, negative = inhibition, actives largely listed as inhibitors; 3.5% of 310,000 active; active = well fitted inhibition curve with a large enough effect; inconclusive = small, poorly fitted or top-dose-only effect, or another doubt; inactive = no such curve, though single readings can be large or run the other way;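 note: the enzyme is Sfp with the accession as filed and its product quenches rhodamine fluorescence; potency is the fitted concentration of half-maximal effect; 0% = enzyme reaction without inhibitor and -100% = no enzyme wells; top concentration of the series not given in the record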
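Buffer: 50 mM Hepes-Na pH 7.6, 10 mM MgCl2, 0.01% Nonidet P-40, 0.01% BSA. Enzyme 15 nM, pre-exposed to compound 15 min; substrates then added and fluorescence change tracked over 30 min.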
Active calls of the source: *; ? = inconclusive; . = no result given; & = joins results of further samples; [ ] = dose if it differs, or a comment. Rows are unselected; any-hit rate near 5.1%.

SMILES	gsp agonist	TRPV1 PAM	gsp antagonist	Menin-MLL FL inh	D2 PAM	ClpP mod	Sfp inh
COc1ccc(CN2C(=O)C(CC(=O)NCc3ccco3)CC(C(=O)N3CCOCC3)=C2C)cc1 (stereo unspecified)	-4%	.	.	.	5	-1.1%	.
O=C(Nc1ccc2oc(=O)ccc2c1)c1cc2ccccc2o1	-27%	-42	-11%	1.7	1	-14%	12%
Cc1nn(C)cc1CN(C)Cc1c(C(=O)N(C)Cc2ccccc2)nc2ccccn12	29%	1	-4%	-2.3	-8	.	-3%
COc1cc(CNc2ccc(N3CCCC3)cc2)ccc1OCc1ccccc1	4%	-6	?	4.8	-2	-4.6%	?
Fc1ccc(NCc2ccccc2F)cc1Cl	-17%	4	-19%	-0.4	-5	0.5%	3%
C=CCC1CCCC(=O)N2CCCC12 (stereo unspecified)	.	.	11%	-1.1[138 µM]	.	0.3%	-9%
Cc1ccc(CNC(=O)c2ccc(NC3=NC4CS(=O)(=O)CC4S3)cc2)cc1 (stereo unspecified)	9%	-1	9%	-0.6	-6	1.4%	10%
CN(C)S(=O)(=O)c1cccc(NC(=O)COC(=O)CCC(=O)c2ccc(F)cc2)c1	-14%	4	3%	1.0	-2	.	5%
Cc1cc(NC(=O)c2ccc(Cl)cc2)n(CCC#N)n1	13%	-2	4%	-0.6	-2	.	-1%
Cc1cccc(C(=O)N/N=C/c2coc3ccccc3c2=O)c1	-16%	-2	-3%	3.7	-7	54%	10%
CN1CCN(S(=O)(=O)c2cccc(C(=O)Nc3cc(Cl)ccc3N3CCOCC3)c2)CC1	10%	2	6%	.	5	0.8%	.
COc1cccc2[nH]c(C(=O)NN)c(N)c12	-13%[15.4 µM]	.	-38%	6.0	2	0.5%	-1%
Cc1ccc(C)c(/C(O)=C2\C(=O)C(=O)N(CCCN3CCOCC3)C2c2cccnc2)c1 (stereo unspecified)	-28%	13	7%	4.5	7	-1.2%	15%
COc1ccc(Oc2nccc(-c3ccc(F)cc3)c2C#N)cc1	?	-6	37%[activator]	-0.9	-31	38%	22%
CC1CN(CCCCSc2ccc(Cl)cc2)CC(C)O1 (stereo unspecified)	3%	2	4%	2.1	-26	-3.5%	-12%
C[C@H]1NC(=O)[C@@]2(C)[C@H](c3ccccc3)[C@H]3COc4ccccc4[C@@H]3N2C1=O	-32%	.	-6%	.	-2	0.1%	.
Cc1cc(C)c(C(=O)c2cccs2)c(C)c1	?	.	-13%	.	-5	.	.
CCC(Sc1nccn1C)C(=O)Nc1nnc(C)s1 (stereo unspecified)	-35%[inhibitor]	-10	-4%	-1.5	-4	-1.8%	-7%
O=C(Cc1ccc(S(=O)(=O)N2CCOCC2)s1)Nc1cc(C(F)(F)F)ccc1N1CCCC1	-25%[15.4 µM]	0	-2%	.	3	.	.
CCCCOc1ccc2c(C)cc(=O)oc2c1OCCCC	3%	7	-16%	2.5	-10	-9.1%	-7%
C#CC(C)(CC)NC(=O)c1cc2cccc(CC=C)c2oc1=O (stereo unspecified)	-30%[inhibitor]	-6	-2%	0.8	-5	-29%	12%
CCc1ccccc1NC(=O)N[C@@H](C)C(=O)O	2%	-2	-3%	0.3	10	0.0%	6%
Cc1ccc(C(=O)C2CCN(C(=O)c3ccc(C)cc3)CC2)cc1	-62%[inhibitor]	-23	-17%	0.7	-14	-2.4%	-2%
CN(Cc1ccccc1)C(=O)c1ccccc1C(=O)O	?	-4	1%	0.5	9	.	15%
Cc1c(NC(=O)COc2ccc3ccccc3c2)c(=O)n(-c2ccccc2)n1C	-13%	7	-1%	8.4	-3	.	10%
(list continues)
SMILES	gsp agonist	TRPV1 PAM	gsp antagonist	Menin-MLL FL inh	D2 PAM	ClpP mod	Sfp inh
CC1(C)CC(=O)c2sc(NC(=O)CN3CCOCC3)nc2C1	-4%	-4	-2%	0.4	-5	-17%	4%
CCc1ccc(S(=O)(=O)Nc2ccc(-c3nc4cccnc4s3)cc2)s1	13%	1	?	6.9	3	3.7%	-6%
CN1CCCN(C(=O)c2ccc(Cl)c(S(=O)(=O)N(C)c3ccccc3)c2)CC1	-38%[inhibitor]	1	6%	?	-2	-0.5%	9%
COc1ccc(C(=O)/C(=C\N(C)C)n2nc(C)cc2C)cc1	-13%	-10	-16%	-0.1	-4	-2.6%	2%
CC(=O)Nc1cc(-c2nc3ccccc3o2)ccc1Cl	-4%	2	1%	-1.4	4	4.0%	15%
COc1ccc(F)cc1S(=O)(=O)N1CCCCC1	-2%[15.4 µM]	4	6%	-0.9	-3	.	21%
O=C1[C@H]2[C@@H](c3ccc(Cl)cc3)N3C(=O)N(c4cccc(F)c4)C(=O)[C@@]3(Cc3ccc(Cl)cc3)[C@H]2C(=O)N1C1CCCCC1	.	4	0%	-5.0	-11	-3.3%	11%
CC1CCC2(CC1)NC(=O)N(CC(=O)Nc1nc(-c3ccc(F)cc3)cs1)C2=O (stereo unspecified)	15%	11	9%	4.0	-16	-6.5%	8%
COc1ccc(CCN2CC(C(=O)O)CC2=O)cc1 (stereo unspecified)	-40%[inhibitor]	7	16%	-1.8	11	1.1%	-2%
O=[N+]([O-])c1ccc(N2CCOCC2)cc1NCc1ccccc1	34%	-4	-9%	0.3	-7	-15%	0%
Cc1cc(C)cc(SCc2noc(C(=O)NCc3ccccc3)c2C(=O)NCc2ccccc2)c1	-12%	24	11%	0.7	-8	-2.2%	7%
CCCc1cc(=O)n2[nH]c(-c3ccc(OC)cc3)nc2n1	3%	11	-5%	0.0	-6	-23%	17%
O=C(Nc1ccc(F)cc1)c1cnccn1	-13%	.	.	.	-10	-2.0%	.
O=C(c1ccco1)N1CCN(c2nc3ccsc3c(=O)s2)CC1	12%	-26	-22%	2.0	-1	-2.7%	17%
Cc1c(C(=O)N2CCN(c3ccccc3)CC2)oc2c1C(=O)CC(C)(C)C2	5%	-4	-16%	.	10	1.1%	20%
CN(C)CCCNC(=O)/C(=N\O)c1ccccc1	1%	-1	23%	4.2	-11	1.7%	20%
CCOC(=O)N1CCN(C(=O)CCn2c(=O)[nH]c3ccsc3c2=O)CC1	-1%	0	2%	3.4	10	.	14%
CCOc1ccc(-c2ccc(SCc3ccccn3)nn2)cc1	4%[15.4 µM]	-9	-10%	0.8	4	0.5%	14%
CC1SC2(NC1=O)C1CC3CC(C1)CC2C3 (stereo unspecified)	4%	-2	-7%	-1.0	-3	.	11%
Cc1cccc(NC(=O)C2CCCN(S(=O)(=O)c3cccc4nsnc34)C2)c1 (stereo unspecified)	-1%	4	20%	14	-2	8.5%	6%
COc1ccc(C(CC(=O)N2CCCCC2)c2c(OC)cc(OC)c3ccc(=O)oc23)cc1 (stereo unspecified)	.	-34	-5%	-3.9&-1.7	-10	-11%	-11%&-2%
O=C(/C=C/c1ccc(Cl)cc1Cl)Nc1ccc(CN2CCOCC2)cc1	-12%	-2	-11%	1.8	-2	-0.3%	-15%
CCc1noc(C)c1C(=O)OCC(=O)Nc1ncc(Cl)cc1Cl	1%[15.4 µM]	7	0%	0.8	-5	0.0%	-2%
CCOC(=O)C(C(=O)OCC)C(c1ccccc1)N1CCN(c2ccccc2)CC1 (stereo unspecified)	27%	.	13%	.	-7	.	.
CC(=O)c1ccc(N2CCN(C(=O)Nc3ccc(C)cc3)CC2)cc1	-1%	0	4%	-3.9	-16	-6.2%&-12%	12%
Continuation.
SMILES	gsp agonist	TRPV1 PAM	gsp antagonist	Menin-MLL FL inh	D2 PAM	ClpP mod	Sfp inh
COc1cc(C(=O)N2CCN(C(=O)C3CC3)CC2)cc(OC)c1OC	?	0	7%	2.9	3	0.4%	11%
CCOc1c(CNCCN2CCOCC2)cccc1OC	-59%[inhibitor]	-2	2%	-0.1	-10	-2.6%	3%
Cc1cc(NC(=O)CSc2nnc(C3CC3)n2-c2ccccc2)no1	0%[15.4 µM]	-40	15%	-0.8	-7	.	-6%
Cc1cc(Cl)ccc1NC(=O)C1CCN(S(C)(=O)=O)CC1	15%	-4	5%	4.0	-3	.	-6%
Cn1c(=O)[nH]c(=O)c2c1nc(NCc1ccco1)n2CCCc1ccccc1	6%	1	5%	-1.7	-3	-2.2%	22%
CCCSC1=C(C#N)C(c2cccnc2)C(C(=O)OCC)=C(c2ccccc2)N1 (stereo unspecified)	-1%	-28	-11%[15.4 µM]	-1.0	11	-3.2%	-3%
COC(=O)c1ccc(NC(=O)Nc2ccc(F)c(Cl)c2)cc1	0%	-3	35µM*	-1.0	0	-4.1%	6%
CCN1C(=O)CC(N2CCC(C(=O)N3CCOCC3)CC2)C1=O (stereo unspecified)	-8%	-3	0%	-0.4	0	0.9%	18%
COc1cc2oc(=O)cc(-c3ccc(-c4ccc(F)c(Cl)c4)cc3)c2c(OC)c1OC	.	.	-7%	-5.1	-5	-2.3%	-3%
Cc1ccc2cc3cc(C(=O)N(CC(=O)NC4CCCC4)c4cccc(C)c4C)sc3nc2c1	10%	30	-17%	3.8	-20	-1.4%	15%
COc1ccc2c(c1)[nH]c1c(=O)n(CCC3=CCCCC3)cnc12	-6%	5	5%	3.0	6	-4.2%	-3%
CCC(=O)Nc1cc(C(=O)O)ccc1Sc1ccc(Cl)cc1	21%	8	-14%	-1.4	-5	.	6%
CC(C)N(Cc1nc(-c2ccc(Cl)cc2)no1)C(=O)/C=C/c1ccccc1	?	-6	-16%	3.3	-11	-3.0%	-2%
CCCCN(CC)CCCNC(=O)c1csc2c1CCCCC2	17%	5	-2%	0.4	-10	-2.3%	6%
COc1cccc(C(=O)Nc2c3c(nc4c2CCC4)CCCC3)c1	-38%[inhibitor]	-6	10%	2.7	-19	0.4%	11%
O=C(/C=C/c1ccccc1Cl)c1ccc(O)cc1	-8%	-8	1%	8.4	-4	.	-8%
CCOc1cc(C(=O)Nc2ccc(S(=O)(=O)Nc3onc(C)c3C)cc2)cc(OCC)c1OCC	-13%[15.4 µM]	.	-2%	.	-2	-1.2%	.
CC(=O)Nc1ccc(CC(=O)Nc2ccc3c(c2)OC2(CCCC2)O3)cc1	-1%	.	.	.	-19	-0.7%	.
Cn1nnnc1SCC(=O)Nc1ncc(Cl)cc1Cl	?	-2	9%	.	11	-1.9%	.

Assay outcomes from PubChem.
